# Screening data: PubChem, several laboratories
# PrP 5UTR inh – inhibition of PrP 5' UTR reporter expression | inhibition, % (concentration not given with the values) | 340,000 compounds, 0.35% hits | cell-based PrP 5' UTR mRNA reporter, plate reader;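 active means every replicate at 50% or more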;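 further: 0 = median of the neutral control wells; tested in H4 reporter cells; numbers are from one replicate; inactives centre near -14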
# Sa RN4220 lethal – kills Staphylococcus aureus RN4220; S. aureus RN4220 growth, OD600, 16 h; inhibition, % (test concentration not listed); 330,000 compounds, 0.33% hits; AID 1259311;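 active means z-score of -3 or lower and OD600 up to 0.18 on both plates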;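 further: plate controls were untreated cells for no effect and reference antibiotic for full effect; stock transfer was 100 nL into about 80 µL; one replicate is shown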
# ugtP null kill – compounds lethal to S. aureus RN4220 ugtP deletion mutant. OD600 growth, 16 h; some inactives read as strong as hits. growth inhibition, % (test concentration not listed). 330,000 compounds, 0.54% hits. AID 1259309;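 active means z-score under -3 and OD600 up to 0.15 on both plates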;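 further: plate controls were untreated wells for no effect and antibiotic for full effect; wells of about 80 µL received 100 nL stock; the first replicate is given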
# Mtb hypoxia rep – reduces hypoxia-regulated biosensor signal in M. tuberculosis. M. tuberculosis hypoxia-regulated fluorescent reporter, fluorescence. fluorescence inhibition, % (concentration not given with the values). 300,000 compounds, 0.1% hits. AID 1159583;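 active means 35 to 45% if threefold the growth effect, above 45% if 1.5-fold the growth effect; inactive means the rest, general growth blockers included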;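 further: wells of about 50 µL received 100 nL stock; 0% = vehicle wells and 100% = reference inhibitor wells; whole bacteria with a GFP reporter of the hypoxia response; strong numbers were not always called active; many hits fall short of the cut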
# Autofluor counter – flagged as autofluorescent in microsphere protease counterscreen | compound autofluorescence counterscreen, microsphere flow cytometry; hits give high values | fluorescence intensity (test concentration not listed) | 360,000 compounds, 3.1% hits;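 active means at least 3 SD above the mean of all compounds, about 16000 in these data; inconclusive means too few beads counted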;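 further: 100 nL of 1 mM stock went into each well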
# BJeLR viability – kills HRASV12-expressing BJeLR cells; 300,000 compounds, 0.17% hits; AID 1554; BJeLR (HRASV12) viability, CellTiter-Glo ATP luminescence, 48 h; reference of the scale not given here; inhibition, % (test concentration not listed);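 active means replicate mean above 50%; inconclusive means above 50% but judged a plate artefact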;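 further: 50 nL library stock added to about 25 µL; numbers are from one replicate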
# Mtb hypoxia rep growth – second read-out of Mtb hypoxia rep, no call of its own (marks repeat the call); growth inhibition, %; measured here: M. tuberculosis growth (absorbance);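 0% = vehicle and 100% = reference antibiotic; read after six days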
# * = called active by the depositor; ? = inconclusive; nt = no result given.
# The opening 3 entries as a preview:
# Every second line gives: PrP 5UTR inh, Sa RN4220 lethal, ugtP null kill, Mtb hypoxia rep, Mtb hypoxia rep growth, Autofluor counter, BJeLR viability
> C=CC12C=CC=CN1C(C(=O)OC)=C(C(=O)OC)C(C(=O)OC)=C2C(=O)OC (centres undefined)
  -13, -1.2, 8, -3, -5, 2375, -5
> CCc1ccc(-c2nn(Cc3ccccc3)cc2C=O)cc1
  -95, 3.0, 1, 4, 2, 2663, -10
> CCn1c(C2CC(=O)N(Cc3ccccc3)C2)nc2ccccc21 (centres undefined)
  -7, -9.1, -3, 4, 5, 5377, 0

# The whole of this part, repeating the preview:
# Every second line gives: PrP 5UTR inh, Sa RN4220 lethal, ugtP null kill, Mtb hypoxia rep, Mtb hypoxia rep growth, Autofluor counter, BJeLR viability
> C=CC12C=CC=CN1C(C(=O)OC)=C(C(=O)OC)C(C(=O)OC)=C2C(=O)OC (centres undefined)
  -13, -1.2, 8, -3, -5, 2375, -5
> CCc1ccc(-c2nn(Cc3ccccc3)cc2C=O)cc1
  -95, 3.0, 1, 4, 2, 2663, -10
> CCn1c(C2CC(=O)N(Cc3ccccc3)C2)nc2ccccc21 (centres undefined)
  -7, -9.1, -3, 4, 5, 5377, 0
> O=C(CN1CCOCC1)n1c2c(c3ccccc31)CCCC2
  8, 2.5, 3, 10, 7, 4464, 3
> COP(=O)(C#Cc1ccccc1)C(O)c1ccc(Br)cc1 (centres undefined)
  6, 8.9, 0, 18, 11, 4637, -3
> CCc1ccc(CNC(=O)CN2C(=O)COc3ccccc32)cc1
  -2, -2.4, -2, -5, 4, 10136, -6
> O=[N+]([O-])c1ccc(N/N=C/c2cccnc2)cc1
  -31, nt, nt, nt, nt, 4121, -1
> Nc1nc(CSc2n[nH]c(-c3ccccc3)n2)nc(Nc2ccccc2)n1
  -10, 4.1, 6, nt, nt, 3617, 0
> CCCCCn1c(N)c(-c2nc3ccccc3s2)c2c([N+](=O)[O-])nn(C)c(=O)c21
  9, 11, -23, 23, 17, 8162, 1
> O=C(CCC(=O)c1ccc(F)cc1)OCc1nnc(-c2ccc([N+](=O)[O-])cc2)o1
  -30, 1.4, 0, 7, 7, 5920, nt
> O=C(Cn1cc([N+](=O)[O-])cn1)NCc1cc2ccccc2[nH]1
  -8, -0.1, 4, 9, 5, 2550, 5
> CC(Nc1ccc(N2CCOCC2)cc1)C(=O)N1c2ccccc2CC1C (centres undefined)
  -22, 4.9, 15, 8, 10, 3629, -12
> C/C(CC(=O)Nc1cccc2c1CCCC2)=N\NC=O
  -16, nt, nt, nt, nt, 1991, 2
> Cc1cc(OCC(=O)NCC2CCC(C(=O)O)CC2)c2c(C)c(C)c(=O)oc2c1 (centres undefined)
  -36, 6.4, 6, nt, nt, 5712, -10
> CC(=O)/C=C/c1ccccc1
  -3, 3.9, 0, nt, nt, 5102, nt
> CCOC1CS(=O)(=O)CC1OCC (centres undefined)
  0, 2.0, 1, -4, 2, 4100, 2
> Cc1nn(-c2ccccc2)c2nc(-c3ccncc3)cc(C(=O)NCc3ccco3)c12
  6, 2.1, -10, 1, 5, 3432, -7
> O=C(c1ccc2c(=O)n(Cc3ccccc3Cl)c(=S)[nH]c2c1)N1CCOCC1
  -5, 1.9, 4, 2, 10, 5443, 1
> Cc1cccc(NS(=O)(=O)c2ccc(C)c(C(=O)NCC(c3ccccc3)N(C)C)c2)c1 (centres undefined)
  -9, 5.8, 6, 5, -3, 3748, nt
> COC(=O)CN1C(=O)N/C(=C/c2ccccc2OC)C1=O
  -29, 2.6, -1, 12, 3, 3924, -3
> NC1CCCCC1N=Cc1c(O)n(CCc2ccc(F)cc2)c(=O)[nH]c1=O (centres undefined)
  6, -0.6, -4, 6, 6, ?, -9
> O=C(Nc1ccc2c(c1)C(=O)c1ccccc1-2)c1ccccc1
  -103, 1.3, 3, 16, 12, 3632, nt
> O=C(CN(CC1CCCO1)C(=O)CNS(=O)(=O)c1ccc(Cl)cc1)NCc1ccco1 (centres undefined)
  -18, 1.5, 7, 6, -4, 2970, -14
> Cc1ccc(NC(=S)/C(=C(\[O-])c2ccc(F)cc2)[n+]2ccccc2)cc1
  -22, 3.9, 7, -1, 12, 4536, 6
> CCN(CC)C(=O)c1c2c(nc3ccccc13)-c1ccccc1CC2
  -15, 3.4, 2, 7, 7, 4019, -11
> COc1ccc(F)c(CN2CCCC(CO)(Cc3cccc(Cl)c3)C2)c1 (centres undefined)
  -2, 12, -6, 5, 11, 4432, 12
> CC[C@@]1(C(=O)OC)N[C@H](CN(C)C(=O)Nc2ccc(Cl)cc2)[C@@H]2C(=O)N(Cc3ccccc3)C(=O)[C@@H]21
  6, 3.0, 3, -6, 1, 2842, nt
> CN(C)Cc1c(O)ccc2c(-c3ccccc3)cc(=O)oc12
  -7, 3.8, -2, -3, -1, 4989, -2
> CN1C(=O)c2ccccc2NC(=O)[C@]12O[C@@H]2c1ccccc1
  -16, 1.0, 6, nt, nt, 5398, 1
> CC1(c2ccccc2)CCC(=O)NC1 (centres undefined)
  -9, 1.7, 1, 3, 7, 3606, nt

# Next part.
# Every second line gives: PrP 5UTR inh, Sa RN4220 lethal, ugtP null kill, Mtb hypoxia rep, Mtb hypoxia rep growth, Autofluor counter, BJeLR viability
> CC1CN(C(=O)c2c(Br)cnn2C)CC(C)O1 (centres undefined)
  0, 0.7, 0, 8, 5, 2554, 5
> CC(Nc1ccc2c(c1)OCCO2)C(=O)N1c2ccccc2CC1C (centres undefined)
  -28, 8.5, 5, 2, -2, 3405, -6
> Cc1nc(-n2nnc(CO)c2CO)nc2c1CCC2
  -13, 1.9, 15, 6, -1, 3108, 1
> O=C(COc1ccc(Cl)cc1Cl)N/N=C/CCc1ccccc1
  -11, nt, nt, nt, nt, 7971, -1
> Nc1ncnc2c1cnn2C1CCCCC1
  3, 2.4, 4, 2, 5, 3270, 7
> Cc1ccc(C2c3[nH]c4ccccc4c3C[C@H]3C(=O)N(c4ccccc4C(=O)N4CCC[C@@H]4C(=O)O)C(=O)N23)cc1 (some centres undefined)
  -11, 3.8, 13, nt, nt, 5168, 3
> COc1ccc(-n2ncc3c2CC(C)(C)CC3NC(=O)c2ccoc2C)cc1 (centres undefined)
  -10, -1.7, 12, 6, 13, 5743, 1
> O=C(Nc1ccc(Cl)cn1)c1cccc2c(Br)cccc12
  -40, -14, 15, -13, 5, 3908, 0
> CCN(CC)S(=O)(=O)c1ccc(O)c(NC(=O)COc2ccc(S(=O)(=O)N3CCOCC3)cc2)c1
  -10, 4.9, 1, 8, 1, 3475, nt
> COc1cc(C=NNS(=O)(=O)c2ccccc2)cc(OC)c1OC
  nt, 4.1, 7, 7, 2, nt, nt
> CCOC(=O)c1c(NC(=O)c2ccc(C)cc2)sc2c1CC(C)(C)NC2(C)C
  nt, -4.7, 9, 8, 2, nt, 6
> CC(C)NC(=S)Nc1ccc(Oc2ccccc2)cc1
  -9, -8.6, -9, 5, 7, 3299, -1
> COc1ccc(C(=Cc2ccccc2[N+](=O)[O-])C(=O)O)cc1
  -42, 4.6, 4, 4, 12, 2909, nt
> Cc1cc(-c2ccc(/C=N/n3cnnc3)o2)ccc1Cl
  -16, nt, nt, nt, nt, 2645, 1
> Cc1noc(C)c1COc1cccc(C(=O)Nc2ccccc2)c1
  -15, 3.0, 6, 7, 7, 6317, nt
> O=[N+]([O-])c1ccc(Oc2ccc(F)cc2)c2ccncc12
  12, -2.0, 11, nt, nt, 2597, 1
> CC1CCCC(NC(=O)COC(=O)Cc2ccsc2)C1C (centres undefined)
  -23, 1.5, 0, nt, nt, 3263, 6
> COc1ccc2c(c1OC)C(=O)N1C2SC[C@H]1C(=O)NC1CC1 (some centres undefined)
  -14, 3.0, 6, nt, nt, 5897, 3
> C=C(C)COc1ccc2c(C)c(CCC(=O)NC3CC3)c(=O)oc2c1
  -9, 2.6, -1, 5, 6, 6094, 13
> O=C(NCC(O)CO)c1csc(Nc2cccc3ccccc23)n1 (centres undefined)
  -28, 3.7, 2, 15, 1, 3586, -2
> O=C(NCC(O)c1ccc([N+](=O)[O-])cc1)c1cccc(S(=O)(=O)N2CCOCC2)c1 (centres undefined)
  -22, 0.2, 2, 0, 1, 4559, -5
> Cc1ccc(-n2cnc3c(=O)[nH]cnc32)cc1[N+](=O)[O-]
  -12, 2.1, 2, 6, 8, 3560, nt
> COCCN(C(=O)COC(=O)CCOc1cccc(C)c1)c1c(N)n(Cc2ccccc2)c(=O)[nH]c1=O
  9, 0.7, 4, -12, -5, ?, 0
> Cc1onc(-c2c(Cl)cccc2Cl)c1C(=O)Nc1nccs1
  -17, 5.7, 7, -19, -14, 3749, -1
> O=C(Nc1ncc(Cc2ccccc2)s1)c1cccs1
  -99, 1.2, -9, nt, nt, 2819, -6
> O=[N+]([O-])c1nn(-c2ccccc2)n(O)c1=NCCc1ccccc1
  -29, 18, 43, nt, nt, 9541, 5
> O=C(C1CCN(C2CC(=O)N(c3cccc(Cl)c3)C2=O)CC1)N1CCCCCC1 (centres undefined)
  -10, -0.5, 6, nt, nt, 3727, 2
> O=C(/C=C/c1ccc(Cl)c(Cl)c1)NC1=NCCS1
  -27, 3.1, -3, 5, 0, 5299, 5
> CC1C(=O)C(C)C(c2ccccc2F)NC1c1ccccc1F (centres undefined)
  -11, 2.3, 0, 7, 7, 3067, 5
> CC[C@@H]1CC=C[C@H]2[C@H]1C(=O)N(Cc1ccccc1)[C@H]2c1ccc(C(F)(F)F)cc1
  -24, nt, nt, nt, nt, 2854, 4

# New compounds follow.
Structure,PrP 5UTR inh,Sa RN4220 lethal,ugtP null kill,Mtb hypoxia rep,Mtb hypoxia rep growth,Autofluor counter,BJeLR viability
COc1ccc(C(=O)Nc2ccccc2-c2nnn(CC(=O)N3CCOCC3)n2)cc1,-23,3.0,5,-9,10,2085,2
CSCCC(NS(=O)(=O)c1ccc(C)cc1)C(=O)NC1CCCCC1 (centres undefined),-11,2.0,6,0,0,4013,5
CC(C)CN1CN(Cc2ccco2)CNC1=S,-10,3.5,9,-4,-5,10271,-4
O=C(Nc1ccccc1)c1ccc2c(c1)OCO2,-38,2.7,1,nt,nt,2372,19
CCOc1ccc(N=c2scc(-c3ccc(OC)cc3)n2CCO)cc1,-1,0.8,2,12,22,3837,3
CCOC(=O)c1ccc(NC(=S)N2CCSC2c2ccc(OC)cc2)cc1 (centres undefined),-19,8.5,2,3,3,10257,-1
COc1ccc(/C(O)=C\C(=O)C(=O)Nc2c(C)n(C)n(-c3ccccc3)c2=O)cc1,nt,-4.4,0,-9,-2,nt,nt
O=S1(=O)N=C(NN=Cc2ccco2)c2ccccc21,nt,2.4,4,-3,5,nt,nt
CC(=O)Nc1ccc(NC(=O)CCOc2ccccc2C)cc1,-16,2.4,-3,-4,-8,3921,-3
O=C(CN1CCN(Cc2ccccc2)CC1)N1N=CCC1c1ccccc1 (centres undefined),-15,-0.4,-8,-2,-4,6390,2
CCCCn1c(N)c(N(CC(C)C)C(=O)CCCc2cccs2)c(=O)[nH]c1=O,-18,2.1,2,-2,4,4490,4
COc1cc(NC(=O)c2cccnc2)ccc1-c1cc2ccccc2oc1=O,nt,2.9,4,3,16,nt,-8
CC1=NOC(=O)/C1=C\c1ccc(-c2ccc(Br)cc2C(=O)O)o1,-19,4.2,4,4,2,2461,-5
NS(=O)(=O)c1ccc(N2C(=O)C3C4CC(C(Br)C4Br)C3C2=O)cc1 (centres undefined),-4,4.7,4,4,7,3368,nt
COc1cccc(CN(C)C(=O)CCN=C2NS(=O)(=O)c3ccccc32)c1,nt,0.2,-1,-6,9,?,nt

# Profiles, quoted from the list. Screens in order: PrP 5UTR inh	Sa RN4220 lethal	ugtP null kill	Mtb hypoxia rep	Mtb hypoxia rep growth	Autofluor counter	BJeLR viability
# `CSCCC(NS(=O)(=O)c1ccc(C)cc1)C(=O)NC1CCCCC1` (centres undefined) as listed: -11	2.0	6	0	0	4013	5
# `COc1cccc(CN(C)C(=O)CCN=C2NS(=O)(=O)c3ccccc32)c1` as listed: nt	0.2	-1	-6	9	?	nt
# `CCOc1ccc(N=c2scc(-c3ccc(OC)cc3)n2CCO)cc1` as listed: -1	0.8	2	12	22	3837	3
# `O=C(CN1CCN(Cc2ccccc2)CC1)N1N=CCC1c1ccccc1` (centres undefined) as listed: -15	-0.4	-8	-2	-4	6390	2
